Vaccinia pol inh – vaccinia E9 polymerase processive synthesis inhibitors, primary screen, biochemical, absorbance. in vitro processive DNA synthesis, absorbance read-out; hits give low values; some inactives read as strong as hits. normalized absorbance, % (test concentration not listed). actives 0.94% (n = 46,000). AID 493162, 2011;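 active = replicate mean up to 90% and picked by the depositor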;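 also: 100% = median of the test wells of a plate; 100 nL library stock went into each well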
Starred values were filed as active, the others as inactive. These rows are one share of the data; rates above refer to the full screens.

SMILES	Vaccinia pol inh
COc1ccc(C(=O)CCN2CCC(C)CC2)cc1	100.2
C(=C\c1ccccc1)/C=N/N1CCN(Cc2cccc3ccccc23)CC1	99.9
O=C(CCc1cn(Cc2ccc(F)cc2)c2ccccc12)NC1CCCC1	98.0
CCOC(=O)N1CCN(S(=O)(=O)c2cc(OC)ccc2OC)CC1	99.6
Cc1cc(C)c(C#N)c(SCc2nc(COc3cccc(C(F)(F)F)c3)no2)n1	100.0
O=C(CSCc1nc2c(nnn2Cc2ccc(F)cc2)c(=O)[nH]1)NC1CCCCCC1	101.2
Cc1cc2c(=O)n(CC(=O)Nc3ccc(F)cc3F)cnc2s1	98.6
CC1CC(=O)N(CC(N)=O)c2ccccc2S1(=O)=O (stereo unspecified)	94.6
N#Cc1c(Nc2ccccc2)sc2c(N)nc(N)nc12	100.3
O=C(O)CCC(=O)NC1CCCCNC1=O (stereo unspecified)	104.5
Cc1ccc(N2C(=O)c3ccccc3C2=O)cc1	102.2
CC1CCC(C(C)C)C(OC(=O)CSC#N)C1 (stereo unspecified)	93.1
Cn1c2nc(-[n+]3ccc(C(=O)[O-])cc3)nc-2c(O)n(C)c1=O	100.5
Cc1nc(-c2ccccc2O)n[nH]1	101.9
COC(=O)c1c(NC(=O)CC2Nc3cc(C)c(C)cc3NC2=O)sc(C)c1C (stereo unspecified)	99.9
O=c1cc[nH]c2cccc(Cc3ccccc3)c12	95.2
CC1=C(C#N)C(c2ccccc2C(F)(F)F)C2=C(O1)C(=O)CCC2 (stereo unspecified)	100.6
FC(F)(F)c1cc(NCc2ccccc2)nc(-c2ccccn2)n1	98.9
COc1ccc(Cn2c(CCC(=O)NCCC3=CCCCC3)nc3ncccc3c2=O)cc1	103.4
OCCNc1nc(N2CCN(c3ccccc3)CC2)nc2ccccc12	99.3
COc1ccc(N(C)S(=O)(=O)c2c(C)noc2C)c(OC)c1	93.4
O=C(CCCn1c(=O)c2cccn2c2ccccc21)NC1CCCc2ccccc21 (stereo unspecified)	102.7
CCOC(=O)c1sc(=S)n(-c2ccc(OC)cc2)c1C	99.8
COCCN1C(=O)c2ccccc2C(C(=O)NCc2ccco2)C1c1c[nH]c2ccccc12 (stereo unspecified)	102.3
C=CCc1c(CCC)nc(SCC2CC2)[nH]c1=O	102.9
Cc1sc2nc3c4ccccc4c(NCC4CCCO4)nn3c(=O)c2c1C (stereo unspecified)	99.9
CN(C)CCOC(=O)c1cc2ccccc2o1	93.6
Nc1ccccc1C(=O)NCCc1ccncc1	102.9
Cc1ccc2c(c1)NC(=O)C(CC(=O)NCCCN1CCN(c3cc(Cl)ccc3C)CC1)O2 (stereo unspecified)	103.5
O=S(=O)(Nc1ccccc1Oc1ccccc1)c1ccc(-c2ccon2)s1	89.3
Cc1nccn1CC(O)Cn1c2ccccc2c2ccccc21 (stereo unspecified)	94.7
O=C(c1ccccc1)c1nc2ccccc2[nH]1	86.0
O=C(NCCc1ccccc1)c1noc2c1CCCCC2	101.8
CCSc1nc(C)cc(COC)c1C#N	100.5
CC(=O)OCCn1c(=O)c2ccccc2c2ccccc2c1=O	99.9
COc1ccc(NC(=O)c2cccn(OCc3ccccc3)c2=O)cc1	100.9
c1ccc(-n2ncc3c2ncn2cnnc32)cc1	98.6
CCCCC/C=C\C/C=C\C/C=C\C/C=C\CCCC(=O)NCC(=O)O	99.3
O=C(Nc1c2c(nc3c1CCC3)CCCC2)C1CCCCC1	100.3
CN(C(=O)Cn1c(=O)n(CCC(=O)NCCc2ccccc2)c(=O)c2ccccc21)C1CCCCC1	79.9
CC(SC(=S)N1CCOCC1)C(=O)O (stereo unspecified)	97.7
CC(C)N(C(=O)Cn1cnc2ccccc21)c1ccccc1	98.1
O=C(Cc1cccs1)Nc1nc(-c2ccccc2)cs1	105.6
O=C(/C=C/c1ccc(-c2ccc(F)cc2)o1)N1CCCCC1	104.7
COC(=O)C12CC3CC(C1)C(=O)C(C3)C2	104.5
O=C(c1ccccc1)N(c1ccccn1)c1ccccn1	102.5
CCc1cccc2c1NC1(CCCC1)CC2C (stereo unspecified)	100.5
CCCC1O[C@@H]2CC3C4CCC5=CC(=O)C=CC5(C)C4[C@@H](O)CC3(C)[C@]2(C(=O)CO)O1 (stereo partly specified)	100.3
CC(C)(C)S(=O)(=O)c1ccccc1/C=N/O	89.0
CCc1ccc(NC(=O)CNC(=O)Cn2ccc3ccccc3c2=O)cc1	109.2
COc1ccc(OC)c(S(=O)(=O)NCc2nn(-c3ccccc3)nc2C)c1	99.8
CCOC(=O)c1ccsc1NC(=O)c1ccccc1	98.0
O=c1c(=O)n(-c2cccc(Cl)c2)ccn1Cc1cccc(C(F)(F)F)c1	98.8
O=S(=O)(CCSc1ccccc1)c1ccccc1	104.1
O=C(Nc1ccccc1)OCCCc1ccccc1	100.1
Cc1nn(C)c(Cl)c1NC(=O)OCC(C)(C)C	109.2
CN(C)c1cccc(NC(=O)c2cccs2)c1	100.2
CC(=S)Nc1c(O)[nH]c2ccccc12	100.2
O=C1CCCCC1C(=O)c1ccccc1 (stereo unspecified)	99.3
CCN(CC)c1ccc(C2(O)C(=O)c3ccccc3C2=O)cc1	99.9

The list continues:
SMILES	Vaccinia pol inh
O=S(=O)(c1ccccc1)C(Cc1ccc(F)cc1)c1ccco1 (stereo unspecified)	102.6
CCOC(=O)c1c(C)n(Cc2ccccc2)c2ccc(OC(C)=O)cc12	99.6
NS(=O)(=O)c1ccc(CNC(=O)C23CC4CC(CC(C4)C2)C3)cc1	101.6
Cc1ccc(S(=O)(=O)NCCOc2nc(N(C)C)nc(N3CCOCC3)n2)cc1	94.7
COc1cc(C=Nc2nonc2NC(C)=O)ccc1OC(C)C	106.3
COCc1nnc(NS(=O)(=O)c2ccc(OC)cc2)s1	99.7
CCC(CC)NC(=O)COc1ccc(Cl)cc1Cl	103.9
CCC(C)NC(=O)/C=C/c1cc2c(cc1Br)OCO2 (stereo unspecified)	107.8
Cn1cnc(S(=O)(=O)NCC2CCN(S(=O)(=O)c3ccccc3)CC2)c1	96.7
O=C(N/C=C/c1ccco1)OCc1ccccc1	95.8
O=C1NC(=O)N(c2ccccc2)C(=O)C1=Cc1c2ccccc2cc2ccccc12	73.0
CCOc1ccc(Br)cc1S(=O)(=O)Nc1ccc(F)cc1	98.9
CC1CCCCC1NC(=O)CC#N (stereo unspecified)	68.4
COC(=O)c1c(N)sc2c1CCC(C(C)(C)C)C2 (stereo unspecified)	100.7
Cc1ccccc1OCC(=O)Nc1ccc2nn(-c3ccccc3)nc2c1	98.1
CC(=O)N1C(C(=O)O)CSC1c1cccs1 (stereo unspecified)	106.8
Oc1ccc(-c2[nH]ncc2-c2nc3ccccc3s2)c(O)c1	97.4
COC(=O)c1scc(S(=O)(=O)C(C)(C)C)c1N	103.3
CCC(C(=O)Nc1cccc(OC)c1)n1c(SCc2ccc(C)cc2)nc2cccnc21 (stereo unspecified)	102.9
CCSc1nnc2sc3ccccc3n12	91.4
CCCCc1ccc(NS(=O)(=O)c2cccs2)cc1	100.8
Nc1nc2c(s1)CCc1c-2cnn1-c1ccccc1	97.7
CCCN(CCO)CC1CC=CCC1 (stereo unspecified)	100.0
CN(C)C(=O)COC(=O)c1cccc(Oc2ccccc2)c1	89.5
CC(C)(C)c1cc(CN2CCOCC2)c(O)c(CN2CCOCC2)c1	99.6
CC1CCCCC1NC(=O)c1cccn2c(=O)c3c4c(sc3nc12)CCCC4 (stereo unspecified)	102.9
O=C(CSC(F)(F)F)Nc1ccccn1	102.5
CCOC(=O)CSc1nc(C2CC2)cc(-c2ccccc2)c1C#N	99.0
Cc1[nH]c2ccccc2c1C(c1c(C)[nH]c2ccccc12)C(C)C	104.2
ON=C1CC2CCCC(C1)N2Cc1cccs1	109.5
CCOC(=O)c1oc2ccccc2c1NC(=O)CCN1CCCCC1	97.6
COc1ccc(OCC(O)CNC(=O)c2cccnc2Oc2ccc(Cl)cc2)cc1 (stereo unspecified)	100.7
Cc1cccc(C)c1NC(=O)NN1C(C)CCCC1C (stereo unspecified)	95.6
O=C(OCCN1CCCC1=O)c1cccnc1Cl	100.0
Cc1ccc(/C=N/N2C(=O)C3C(C2=O)C2C=CC3C23CC3)o1 (stereo unspecified)	100.6
COCCn1c(C)cc(/C=C2/C(=O)N(c3ccccc3)c3ccccc32)c1C	102.3
COC(=O)c1[nH]c(=O)c2ccccc2c1O	100.7
COc1cc(NS(=O)(=O)N2CCCC2)cc(OC)c1OC	98.4
CCOc1ccc(N(C(C)C(=O)NCc2ccc(C)cc2)S(C)(=O)=O)cc1 (stereo unspecified)	100.1
O=C(c1ccccc1)c1cc(Cl)ccc1NC(=O)C(F)(F)F	97.5
CCOC(=O)CSc1sc(C(=O)OCC)c(N)c1C#N	88.3
COc1ccc(/C=C/C(=O)C2CC2)cc1COc1cccc(C)c1C	99.8
CCOC(=O)C1=C(C)NC(=O)CC1c1ccccc1Cl (stereo unspecified)	113.5
O=C(Nc1ccc2nc3n(c(=O)c2c1)CCCC3)c1ccccn1	92.0
CCCCS(=O)c1sc2nc(-c3cccs3)cc(-c3ccccc3)c2c1N (stereo unspecified)	99.5
O=C(c1ccccc1)N(Cc1ccccc1)c1ccccn1	100.0
CCn1c(CCNC(=O)Cc2ccccc2)nc2ccccc21	102.0
Cc1sc(-c2ccc(-c3csnn3)cc2)nc1-c1ccccc1	100.1
Cc1ccc(N2CC(C(=O)Nc3c(C)cccc3C)CC2=O)cc1 (stereo unspecified)	100.6
COC(=O)c1ccc(COC(=O)c2ccc(C)cc2C)cc1	99.7
COc1ccccc1NC(CC(=O)c1ccccc1)C(=O)O (stereo unspecified)	92.7
NC1=NC(=O)CC(C(=O)Nc2cc(Cl)ccc2Cl)S1 (stereo unspecified)	106.2
COC(=O)CNc1ccc2c(c1)OCO2	92.4
CNC(=O)c1ccc(/C=C2/Sc3ccccc3NC2=O)cc1	101.5
COCC(=O)Nc1ccc(CC#N)cc1	100.2
COC(=O)C1C2c3ccccc3C(c3ccccc32)C1C(=O)OC (stereo unspecified)	95.4
c1csc(CSc2nc3ccccc3[nH]2)c1	100.0
O=C(CC1SC(=NC2CC3C=CC2C3)NC1=O)Nc1ccccc1Cl (stereo unspecified)	92.1
Cc1cccc(-c2nc(CS(=O)CC(=O)NCc3cccs3)c(C)o2)c1 (stereo unspecified)	104.6
CN(C1CCCCC1)S(=O)(=O)c1ccc(C(=O)Nc2nccs2)cc1	88.1

Next results.
SMILES	Vaccinia pol inh
COc1ccc2cc(C(C)C(=O)Nc3ccc(OC(F)(F)F)cc3)ccc2c1 (stereo unspecified)	101.7
NNC(=O)Oc1ccccc1	102.8
O=C(O)CCSC(=S)N1CCCC1	99.7
CCOC(=O)Cn1c(=O)oc2ccc(C)cc21	100.4
Cn1cc(CCC(=O)N2CCc3ccccc32)c2ccccc21	101.0
CCN(CC)S(=O)(=O)c1ccc(Cl)c(C(=O)N2CCCCCC2)c1	94.8
COc1cccc(OCC(O)CN2CCc3ccccc3C2)c1 (stereo unspecified)	99.8
CC1Cc2ccccc2N1C(=O)C12CCC(C)(C(=O)C1)C2(C)C (stereo unspecified)	99.9
C=CCn1nnnc1SCC(=O)c1ccc(OC)cc1	100.2
C=CC[N+]1(CC#Cc2ccccc2)CCCCC1	99.6
Cc1ccc(C(=O)Nc2ccc(Cl)cn2)cc1	98.3
N#Cc1c(-c2ccco2)cc(-c2ccccc2)nc1SCCN1C(=O)c2ccccc2C1=O	99.9
COc1ccc(/C=C2\CCc3ccccc3C2=O)cc1Cn1cccn1	109.5
N#CC1=C(N)OC2=C(C(=O)CC(c3ccccc3)C2)C1C1CCCCC1 (stereo unspecified)	100.2
O=C(CSc1ccc2ccccc2c1)Nc1ccccc1N1CCOCC1	93.1
Oc1ccccc1Oc1cnn(-c2ccccc2)c1-c1ccccc1	99.5
Cc1ccnc(N=Cc2c(C)[nH]n(-c3ccccc3)c2=O)c1	100.0
C=Cn1c2ccccc2c2nc3ccccc3nc21	82.1
O=C(O)c1ccccc1-c1nc2ccccc2s1	98.8

Screens (PubChem BioAssay)
